Source: PubChem
VACV Venus inh: qHTS for Stage-Specific Inhibitors of Vaccinia Orthopoxvirus: Venus Reporter Primary qHTS; AID 720580, 2013; Vaccinia virus Venus reporter expression, fluorescence; Potency, µM (titrated, usually from 36.5 µM), for inactives: at the highest dose activity change, negative = inhibition, most hits filed as inhibitors; hit rate 0.46% among 330,000; active means well fitted inhibition curve with a large enough effect; inconclusive means small, poorly fitted or top-dose-only effect; inactive means no such curve, though single readings can be large or run the other way; tested in A549 cells; also: nearly all actives have a fitted effect of over 30% in size; inactives centre near -10
VACV mCherry inh: qHTS for Stage-Specific Inhibitors of Vaccinia Orthopoxvirus: mCherry Reporter Primary qHTS; Vaccinia virus mCherry reporter infection, fluorescence; about a quarter of the inactives have no number; Potency, µM (titrated, usually from 36.5 µM), inactives show at the highest dose activity change, negative = inhibition, actives largely listed as inhibitors; hit rate 0.63% among 310,000; active = well fitted inhibition curve with a large enough effect; inconclusive = small, poorly fitted or top-dose-only effect; inactive = no such curve, though single readings can be large or run the other way; tested in A549 cells; also: nearly all actives have a fitted effect of over 35% in size; inactives centre near -10
Numbers without * were called inactive; i = inactive; ? = inconclusive; · = no result given; & = joins results of further samples; [ ] = another dose, or the depositor's remark. % is scaled to controls: 0 for no effect and ±100 for the full control effect; potency is read from the fitted curve at half-maximal effect.

Value order: VACV Venus inh	VACV mCherry inh
[1] O=C(O)c1ccc(Nc2ccc3nonc3c2[N+](=O)[O-])cc1
→ -22%	-1%
[2] CN1/C(=C\C(=O)c2cccc([N+](=O)[O-])c2)Sc2ccccc21
→ -3%	12%
[3] O=C(C1CCN(c2ncnc3c2nc2n3CCCCC2)CC1)N1CCN(c2ccc(Cl)cc2)CC1
→ -7%	i
[4] CCOC(=O)C1CCN(S(=O)(=O)c2cccc(-c3cn4cccc(C)c4n3)c2)CC1
→ -6%	-16%
[5] CCOC(=O)c1cnc(-c2ccccc2)nc1Oc1ccc(Cl)c(Cl)c1
→ 12%	·
[6] Cn1cc(S(=O)(=O)N2CCOCC2)cc1C(=O)Nc1cccc(C#N)c1
→ -2%	5%
[7] CC(C)(C)NC(=O)COC(=O)C1c2ccccc2Oc2ccccc21
→ 0%	i
[8] COc1ccc(Nc2ncc3c(n2)CCN(Cc2cccc(F)c2F)C3)c(OC)c1
→ -4%	-12%
[9] COc1ccc(Nc2nc3ccccc3c(=O)[nH]2)cc1
→ -5%	-10%
[10] Cc1ccccc1NS(=O)(=O)c1cc(C(=O)Nc2ccccc2-c2ccccc2)ccc1Cl
→ -20%	i
[11] O/N=C(/C[n+]1ccsc1)c1ccc(I)cc1
→ ?	-7%
[12] CCNC(=O)COC(=O)c1ccc(-n2nc(C)cc2C)cc1
→ -10%	2%
[13] OCCNC(=S)NCCc1ccccc1
→ -2%	i
[14] O=C(CN1CCOCC1)NN1CC(=O)N(c2ccc(Cl)cc2)CC1=O
→ -12%	i
[15] COc1ccc(CCNC(=O)CSCc2ccc([N+](=O)[O-])cc2)cc1
→ -17%	-10%
[16] CNC(=O)c1csc(-c2ccc(Cl)cc2)n1
→ -1%	i
[17] Cc1ccc(/C=C2\SC(=S)N(CC3CCCO3)C2=O)o1 (centres undefined)
→ 148%[activator]	31%[activator]
[18] CC1CCN(c2nc(CN3CCCCC3)nc3scc(-c4ccccc4)c23)CC1
→ -15%	-24%
[19] O=C(NCc1cccs1)c1ccc2c(c1)N(Cc1cccc(F)c1)C(=O)c1ccccc1S2
→ -6%	-18%
[20] Cc1ccc(N(CC(=O)NCc2ccncc2)S(C)(=O)=O)cc1Cl
→ 3%	-9%
[21] CCC(=O)N1c2ccc(S(=O)(=O)N3CCN(c4ccccc4Cl)CC3)cc2CC1C (centres undefined)
→ -6%	-7%
[22] CSc1ccc(C(=O)C2CCCN(C(=O)CCn3cncn3)C2)cc1 (centres undefined)
→ -6%	i
[23] Cc1cccc(N2CCN(c3nc4ccccc4c(=O)n3-c3ccc(Cl)cc3)CC2)c1C
→ -10%	-6%
[24] O=C(CN1CCN(Cc2ccc(Cl)cc2)CC1)N/N=C/c1cccs1
→ -10%	-20%
[25] O=C(Nc1ccc2c(c1)OCO2)C(c1ccc(Cl)cc1)N1CCN(C(=O)c2ccco2)CC1 (centres undefined)
→ -3%	-2%
[26] COc1ccc(CCn2c(C)cc(C(=O)CSc3nnc(N)s3)c2C)cc1
→ -28%	-28%
[27] COc1ccc(C2C(C(=O)N3CCN(c4ccccn4)CC3)CCC(=O)N2c2cc(OC)c(OC)c(OC)c2)cc1 (centres undefined)
→ 5%	-6%
[28] C=CCNCCCOc1ccc(C(C)(C)c2ccccc2)cc1
→ -21%	-22%
[29] CC(C)(C)c1cc2cccnc2n1Cc1ccccc1
→ -29%	?
[30] COc1ccc(NC(=O)[C@@H](NC(=O)N2C[C@H]3C[C@@H](C2)c2cccc(=O)n2C3)C(C)C)cc1OC
→ 3%	2%
[31] CCCCNS(=O)(=O)c1ccc2nc(NC(=O)c3cccnc3)sc2c1
→ -24%	-18%
[32] Cc1cc(CNC(=O)C2CCC(=O)N(Cc3cccc(C(F)(F)F)c3)C2)no1 (centres undefined)
→ -11%	-14%
[33] Cc1ccc(N2CCN(C(=S)Nc3ccccc3)CC2)cc1
→ -11%	-2%
[34] Cc1cccc(NC(=O)C(C)n2cc([N+](=O)[O-])cn2)n1 (centres undefined)
→ 3%	-6%
[35] CC(=O)c1cccc(NC(=O)c2cc(-c3ccc(Cl)s3)nc3ccccc23)c1
→ -5%	-11%
[36] CC(=O)c1cccc(OCC(O)CNCCOc2ccc(C)cc2)c1 (centres undefined)
→ -1%	-1%
[37] O=C(CSc1nccn1-c1ccccc1)NCc1ccc2c(c1)OCO2
→ -24%	·
[38] Cc1ccc(Cl)cc1NC(=O)Cn1c(=O)n(Cc2ccc(C(=O)NCc3ccc4c(c3)OCO4)cc2)c(=O)c2ccccc21
→ -4%	3%
[39] COC(/C(=N/O)c1ccc(Cl)cc1)c1ccccc1 (centres undefined)
→ ?	?
[40] CCN(CC)CCC(c1cc(OC)c(OC)c(OC)c1)c1c(OC)cc(OC)c2c(C)cc(=O)oc12 (centres undefined)
→ -11%	22%
[41] COc1ccc(S(=O)(=O)N(C)C[C@H]2Oc3ncc(C#CC4(O)CCCC4)cc3C(=O)N([C@@H](C)CO)C[C@@H]2C)cc1
→ ?	-12%
[42] C=CCn1c(C)cc(-c2csc(NC(=O)CCc3nc4ccccc4c(=O)[nH]3)n2)c1C
→ -10%	-15%
[43] Cc1cc(C(=O)COC(=O)c2ccc(NC(=O)CC#N)cc2)c(C)n1CC(F)(F)F
→ -14%	-18%
[44] O=C(OCc1cc(=O)oc2cc(O)ccc12)c1cc(S(=O)(=O)N2CCOCC2)ccc1F
→ -15%	-13%
[45] CC(CC(=O)Nc1ccc(F)cc1F)S(=O)(=O)c1ccc2c(c1)NC(=O)CO2 (centres undefined)
→ -8%	-22%
[46] Cc1ccc(CN(C(=O)C(F)(F)F)C(C(=O)NC2CCCCC2)c2ccco2)cc1 (centres undefined)
→ -15%	0%
[47] O=S(=O)(NCCCN1CCOCC1)c1ccc2c(c1)OCCO2
→ 5%	-9%
[48] Cc1ccc(CC(=O)c2ccc(Cl)cc2)cc1
→ 18%	-4%
[49] CCOc1c(Br)ccc2c1sc1nc[nH]c(=O)c12
→ ?	·
[50] CC(=O)c1ccc(NC(=O)c2ccc(-n3cnnc3)cc2)cc1
→ 12%	8%
[51] Nc1c(C(=O)NCCN2CCOCC2)c2nc3ccccc3nc2n1CCc1ccccc1F
→ ?	?
[52] Cc1ccc(C(=O)OCC(=O)N(C)c2c(N)n(Cc3ccccc3)c(=O)[nH]c2=O)s1
→ -15%	i
[53] COc1ccc(NCC(=O)N2CCCC2)cc1Cl
→ -10%	-26%
[54] O=C(CNC(=O)c1ccccc1)NCCCSc1ccccc1
→ -15%	i
[55] CC1C(=O)CCC2[C@]1(C)CCC1[C@]2(C)CC[C@@]2(C)C3CC(C)(C)CC[C@]3(C)CC[C@@]12C (some centres undefined)
→ -4%	-4%
[56] Cn1cc(C(=O)Nc2ccc(Cl)c(Cl)c2)cn1
→ -8%	-7%
[57] NCCCC[C@H]1CNC(=O)C(=O)N1CCCCC1CCCCC1
→ 0%	-6%
[58] COC(=O)[C@@H](N)CSC/C=C(\C)CC/C=C(\C)CCC=C(C)C
→ -8%	-14%
[59] COc1ccccc1-c1csc(Nc2ccc(Oc3ccccc3)cc2)n1
→ -9%	6%
[60] Cc1ccc2c(c1)N(CC(=O)Nc1ccccc1C(F)(F)F)C(=O)c1cccnc1O2
→ -16%	-10%

#61 Cc1c(CC(=O)N[C@@H](C)C(=O)O)c(=O)oc2c(C)c3occ(-c4ccccc4)c3cc12
#62 CCOC(=O)[C@H]1[C@H]2COc3ccc(Cl)cc3[C@@H]2N2C(=O)[C@@H](C)NC(=O)[C@@]12C
#63 COCCCn1c(SCC(=O)Nc2ccc(OC)cc2)nc2c(sc3ccccc32)c1=O
#64 COc1ccc(CCNC(=S)Nc2cccc(C)c2C)cc1
#65 CN(C)CCCN1C(=O)CSC1c1ccccc1 (centres undefined)
#66 CCOC(=O)C1CCCN(C(=O)c2cc(-c3ccccc3)cs2)CC1 (centres undefined)
#67 Cc1ccc(C(C(=O)NCc2ccco2)N(C(=O)CNC(=O)c2cccs2)c2ccc(C)cc2C)cc1 (centres undefined)
#68 COc1cc(C(=O)O)cc(OC)c1OC
#69 CCCCNC(=S)Nc1ccc(Oc2ccccc2)cc1
#70 CC(C)(C)NC(=S)Nc1cccc(C(F)(F)F)c1
Screen / compound no. | 61 | 62 | 63 | 64 | 65 | 66 | 67 | 68 | 69 | 70
VACV Venus inh | -10% | -8% | 2% | 0% | -13% | -4% | -2% | 8% | -14% | -25%
VACV mCherry inh | i | -13% | -6% | 9% | -11% | 12% | -11% | 4% | -5% | -29%

#71 O=C(c1nn2c(C(F)(F)F)cc(-c3cccs3)nc2c1Cl)N1CCCc2ccccc21
#72 Cc1ccc(C(=O)NC(=S)Nn2cnnc2)cc1
#73 CCCS(=O)(=O)NC(=O)C1(C)CCCN(C(=O)c2ccc3ccccc3c2)C1 (centres undefined)
#74 N#Cc1c(NC(=O)COC(=O)c2ccc(S(=O)(=O)N3CCCC3)cc2)sc2c1CCCCC2
#75 Cc1ccc(NC(=O)C(=O)Nc2ccccn2)cc1
#76 CCOC(=O)Cc1nnc(NC(=O)c2ccco2)s1
#77 CNCc1c(OCc2ccc(F)cc2)ccc2ccccc12
#78 Cc1noc(C)c1S(=O)(=O)NC(=O)C1(C)CCN1C(=O)Cc1ccc(-c2ccccc2)cc1 (centres undefined)
#79 CSc1ncccc1C(=O)OCC(=O)NCc1ccc2c(c1)OCO2
#80 Cc1ccc(-c2nc(SCC(=O)NCC3CCCO3)c(-c3ccc(C)cc3)[nH]2)cc1 (centres undefined)
Screen / compound no. | 71 | 72 | 73 | 74 | 75 | 76 | 77 | 78 | 79 | 80
VACV Venus inh | -7% | -8% | -7% | -7% | -19% | -6% | -17% | -5% | -14% | -18%&-30%
VACV mCherry inh | -7% | -22% | 25% | -4% | i | · | -5% | -4% | -16% | ?

#81 CN(CC(=O)N[C@H](CO)Cc1ccccc1)C(=O)[C@H](CCS(C)=O)NC(=O)[C@@H](N)Cc1ccc(O)cc1 (some centres undefined)
#82 Fc1ccc(-c2cc(-c3nc(-c4ccccc4)no3)[nH]n2)cc1
#83 COC(=O)c1ccc(NC(=O)Cn2c(=O)nc(-c3ccccc3)c3ccccc32)cc1
#84 Cc1ccc(C(=O)n2nc(C)c(S(=O)(=O)N3CCCCCC3)c2C)cc1C
#85 c1ccc(-c2ccc3c(c2)CNCc2cnnn2-3)cc1
#86 CC(C(=O)N1CCc2ccccc21)N1CCN(c2cccc(C(F)(F)F)c2)CC1 (centres undefined)
#87 O=C1[C@H]2CCC=C[C@H]2[C@H](c2ccccc2Br)N1Cc1ccccc1
#88 O=C(NC1CCCCC1)C(c1cccs1)N(Cc1cccs1)C(=O)c1cccs1 (centres undefined)
#89 O=C(NCc1cccc(C(F)(F)F)c1)C1CC(c2ccccc2F)=NO1 (centres undefined)
#90 NS(=O)(=O)c1ccc(CCNC(=O)C(=O)Nc2cc3c4c(c2)CC(=O)N4CCC3)cc1
Screen / compound no. | 81 | 82 | 83 | 84 | 85 | 86 | 87 | 88 | 89 | 90
VACV Venus inh | -2%[3.33 µM] | -4%[7.34 µM] | -17% | -4% | -4% | -30% | -19% | -18% | -17% | -10%
VACV mCherry inh | -8%[3.33 µM] | -1%[7.34 µM] | ? | 10% | 6% | ? | -18% | -20% | -7% | -14%

#91 Cc1ccc(S(=O)(=O)N(C)Cc2ccc(C(=O)NN=C(CC(C)C)CC(C)C)cc2)cc1
#92 C/C(CC(=O)Nc1cc(C)ccn1)=N\NC(=O)C(=O)Nc1cccc(C)c1
#93 O=C(O)C1CCCN1C(=O)C12CC3CC(CC(C3)C1)C2 (centres undefined)
#94 COc1ccc(-c2cc(C(F)(F)F)nc(SCC(=O)Nc3ccc(O)cc3)n2)cc1OC
#95 COc1ccc(NC(=O)CN2C(=O)CSc3ncccc32)cc1
#96 COc1cccc(CSc2nc3n(n2)C(c2cccs2)C(C(=O)Nc2ccccc2C)=C(C)N3)c1 (centres undefined)
#97 Nc1ncnc2c1ncn2[C@@H]1O[C@H](CNC(=O)[C@@H](N)CO)[C@@H](O)[C@H]1O
#98 COc1cccc(NC(=O)Nc2cccc(C)n2)c1
#99 CN(C(=O)CSc1nnc(-c2ccc(OC(F)F)cc2)n1N)C1CCS(=O)(=O)C1 (centres undefined)
#100 COc1ccccc1Nc1nn2c(=O)c3ccc(C(=O)Nc4ccc(F)cc4)cc3nc2s1
Screen / compound no. | 91 | 92 | 93 | 94 | 95 | 96 | 97 | 98 | 99 | 100
VACV Venus inh | -21% | -12% | -15% | 4% | -6% | -19% | ? | -12% | -3% | ?
VACV mCherry inh | ? | -16% | i | 1% | -15% | -29% | -28% | i | -14% | ?

#101 Cc1ccc(C)c(N2C(=O)N(Cc3cccc(C(F)(F)F)c3)c3ccccc3S2(=O)=O)c1
#102 NS(=O)(=O)c1cccc(NS(=O)(=O)c2ccc(/C=C/C(=O)O)cc2)c1
#103 Nc1ccccc1OCCOCCOc1ccccc1N
#104 Cc1ccc(S(=O)(=O)N2CCC(C(=O)NCCCN3CCCC3=O)CC2)cc1C
#105 Cc1cccc(-c2nc(SCc3cc(=O)c4cccc(F)c4[nH]3)n[nH]2)c1
#106 CC(/C=N\Nc1nnc2c(n1)[nH]c1c(C)cccc12)=C\c1ccco1
#107 CCOC(=O)C1(Cc2ccc(Cl)cc2)CCN(C(=O)CCc2ccncc2)CC1
Screen / compound no. | 101 | 102 | 103 | 104 | 105 | 106 | 107
VACV Venus inh | -4% | -10% | -24% | -21% | -12% | -14% | -21%
VACV mCherry inh | 9% | -1% | -16% | -19% | -17% | i | -14%
